NS1 function inh = qHTS Assay for Inhibitors of Influenza NS1 Protein Function. S. cerevisiae slowed by influenza A NS1, growth recovery by OD600. hit rate 0.4% among 270,000. Potency, µM (doses to about 46.1 µM), inactives show at the highest dose activity, positive = more growth; active means well fitted rising curve with a large enough effect; inconclusive means small, poorly fitted or top-dose-only effect; inactive means no such curve, though single readings can be large or run the other way; further: nearly all actives have a fitted effect of over 50% in size
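In this qHTS, NS1 from influenza A is expressed in budding yeast, where it slows growth. Cells are switched from glucose to 2% galactose medium (pH 6.0, -URA), treated with compound, and growth recovery is read at OD600.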
MARV entry inh = qHTS for inhibitors of binding or entry into cells for Marburg Virus; hit rate 1.8% among 300,000; Marburg virus pseudotyped entry inhibition, cell reporter; control for the full effect not named in the record; about a third of the inactives were read at about 46 µM; Potency, µM (highest dose often 37.8 µM), without a hit: at the top dose activity change, negative = inhibition, most hits filed as inhibitors; active = well fitted inhibition curve with a large enough effect; inconclusive = small, poorly fitted or top-dose-only effect, or effect the other way; inactive = flat fitted curve, though single readings scatter; tested in HEK293 cells; about a fifth of its hits are not listed in these tables; further: on the % scale 0 is the no-effect control and ±100 the full control effect; luciferase read-out
Cruzain noTriton = qHTS Assay for Promiscuous and Specific Inhibitors of Cruzain (without detergent). Cruzipain (Trypanosoma cruzi), P25779. purified cruzain, Z-FR-AMC fluorescence, no detergent. Potency, µM, for the others: max response, negative = inhibition, actives largely listed as inhibitors. hit rate 2.3% among 200,000;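 further: plate controls were enzyme without inhibitor for no effect and buffer without enzyme for full effect; nearly all actives have a fitted effect of over 40% in size; top concentration of the series not given in the record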
Target sequence (P25779 123-467 limits assumed): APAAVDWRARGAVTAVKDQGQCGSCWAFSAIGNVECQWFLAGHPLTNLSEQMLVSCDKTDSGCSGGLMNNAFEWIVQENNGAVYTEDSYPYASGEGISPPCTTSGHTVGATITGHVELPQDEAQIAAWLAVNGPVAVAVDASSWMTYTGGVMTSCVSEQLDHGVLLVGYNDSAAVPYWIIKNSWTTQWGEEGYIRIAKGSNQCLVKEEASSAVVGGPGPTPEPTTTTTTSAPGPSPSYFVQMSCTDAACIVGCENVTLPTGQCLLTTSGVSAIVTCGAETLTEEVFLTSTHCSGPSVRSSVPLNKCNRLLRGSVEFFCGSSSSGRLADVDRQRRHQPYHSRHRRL
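Detergent-free condition (0.00005% Triton X-100) in acetate buffer pH 5.5 with DTT. 1.5 nM enzyme and compound were pre-mixed 15 min, then 2 uM Z-FR-AMC substrate added; reaction progress from fluorescence change between first and third reads (60 s).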
SARS PLpro yeast = qHTS of Yeast-based Assay for SARS-CoV PLP. Potency, µM (doses to about 32.9 µM), for the others: top-dose activity, positive = growth rescue. S. cerevisiae expressing SARS-CoV PLpro, growth rescue; control for the full effect not named in the record. hit rate 0.19% among 330,000; active means well fitted rising curve with a large enough effect; inconclusive means small, poorly fitted or top-dose-only effect; inactive means no such curve, though single readings can be large or run the other way; further: 0% is about no effect; nearly all actives have a fitted effect of over 55% in size; growth read by luminescence after 48 h
RE007 growth inh = qHTS Assay for Inhibitors of the HIV-1 protein Vpr; S. pombe RE007 Vpr strain, BacTiter-Glo ATP luminescence, 24 h; control for the full effect not named in the record; hit rate 0.21% among 360,000; Potency, µM (titrated, usually from 92.2 µM), for inactives: at the highest dose activity change, negative = less growth; active = well fitted falling curve with a large enough effect; inconclusive = small, poorly fitted or top-dose-only effect; inactive = no such curve, though single readings can be large or run the other way;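 further: on the % scale 0 is the no-effect control and ±100 the full control effect; nearly all actives have a fitted effect of over 50% in size; the assay follows cell death caused by Vpr and the record does not say whether a fall means rescue or toxicity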
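Fission yeast RE007 carrying one integrated HIV-1 vpr copy, seeded at OD 0.01 in PMG+AL medium with 23 nL pinned compound. Grown 24 h at 30 degrees; viability read by BacTiter-Glo luminescence after 5 min.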
Cruzain inh Det = qHTS Assay for Promiscuous and Specific Inhibitors of Cruzain (with detergent); purified cruzain, Z-FR-AMC fluorescence, 0.01% Triton; Potency, µM, for the others: max response, negative = inhibition, actives largely listed as inhibitors; hit rate 0.43% among 200,000; AID 1478, 2009;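 further: plate controls were neutral wells for no effect and buffer without enzyme for full effect; nearly all actives have a fitted effect of over 40% in size; top concentration of the series not given in the record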
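Cysteine protease activity tested under reducing, mildly acidic conditions (100 mM sodium acetate pH 5.5, 5 mM DTT) plus 0.01% Triton X-100. Cruzain 1.5 nM; substrate Z-FR-AMC 2 uM; 15 min compound preincubation at room temperature.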
LASV entry inh = qHTS for Inhibitors of binding or entry into cells for Lassa Virus; Lassa virus pseudotype entry inhibition, cell reporter; control for the full effect not named in the record; Potency, µM (doses to about 37.9 µM), for inactives: top-dose activity change, negative = inhibition, most hits filed as inhibitors; hit rate 1.2% among 300,000; active means well fitted inhibition curve with a large enough effect; inconclusive means small, poorly fitted or top-dose-only effect, or effect the other way; inactive means flat fitted curve, though single readings scatter; tested in HEK293 cells; further: on the % scale 0 is the no-effect control and ±100 the full control effect; nearly all actives have a fitted effect of over 50% in size; luciferase read-out
2A StopGo = High Throughput Screening for Foot and Mouth Disease Virus Antivirals; Potency, µM (doses to about 57.9 µM), for inactives: at the highest dose signal change, negative = less light; hit rate 1.2% among 410,000; human cells with a luciferase reporter of 2A StopGo recoding; control for the full effect not named in the record; active = well fitted falling curve with a large enough effect; inconclusive = small, poorly fitted or top-dose-only effect; inactive = no such curve, though single readings can be large or run the other way; tested in HEK293T cells; further: on the % scale 0 is the no-effect control and ±100 the full control effect; nearly all actives have a fitted effect of over 45% in size; luciferase light after 4 h
Starred values were filed as active, the others as inactive; & = joins results of further samples; [ ] = another dose, or the depositor's remark. Unless noted, the call rests on the fitted dose curve; in most records, active means well fitted curve in the direction sought with a large enough effect; inconclusive means small, poorly fitted or top-dose-only effect, or another doubt; inactive means no such curve, though single readings can be large; an effect the other way counts as inactive or inconclusive. Potency means the concentration at half of the fitted maximal effect.

Results for Nc1c(S(=O)(=O)c2cccs2)c2nc3ccccc3nc2n1Cc1cccs1 ?
NS1 function inh: -13.4%; MARV entry inh: -2.5%; Cruzain noTriton: -15.7%; SARS PLpro yeast: 2.3%; RE007 growth inh: 11.7%; Cruzain inh Det: 4.1%; LASV entry inh: 0.0%; 2A StopGo: 18.2%

How did Cc1ccc(/C=N/NS(=O)(=O)c2ccccc2)o1 do in these assays?
NS1 function inh: 0.4%; MARV entry inh: 22.5%; Cruzain noTriton: -0.7%; SARS PLpro yeast: -7.0%; RE007 growth inh: 2.2%; Cruzain inh Det: -1.8%; LASV entry inh: 5.0%; 2A StopGo: 70.1%[activator]

What do the screens show for `Cc1csc(Sc2nc3c(c(=O)[nH]c(=O)n3C)n2CCCc2ccccc2)n1`?
NS1 function inh: 7.4%; MARV entry inh: 0.3%; Cruzain noTriton: inconclusive; SARS PLpro yeast: -5.7%; RE007 growth inh: -2.4%; Cruzain inh Det: 3.8%; LASV entry inh: 1.1%; 2A StopGo: -11.0%

How did O=C(NCc1ccccc1)C(=O)NCC(c1cccs1)S(=O)(=O)c1ccccc1 (stereo not given) do in these assays?
Cruzain noTriton: -3.4%; Cruzain inh Det: -0.4%; LASV entry inh: inconclusive; 2A StopGo: -23.8%

Results for c1nc2n(n1)C1=C(CCCC1)C1(CCCCC1)N2 ?
MARV entry inh: 17.5%; SARS PLpro yeast: 0.4%; RE007 growth inh: 6.0%; LASV entry inh: inconclusive; 2A StopGo: -15.3%

How did Cc1ccc(S(=O)(=O)NNC2=NS(=O)(=O)c3ccccc32)c(C)c1 do in these assays?
MARV entry inh: 29.1%[46.1 µM]; SARS PLpro yeast: 2.1%; RE007 growth inh: 26.4%; LASV entry inh: inconclusive; 2A StopGo: -9.6%

What do the screens show for `NS(=O)(=O)c1ccc(CCNC(=O)c2ccc(NC3=NC4CS(=O)(=O)CC4S3)cc2)cc1` (stereo not given)?
NS1 function inh: 1.4%; MARV entry inh: 3.2%[46.1 µM]; SARS PLpro yeast: -9.4%; RE007 growth inh: 5.9%; LASV entry inh: -1.4%[46.1 µM]; 2A StopGo: 11.5%

How did COc1cc(OC)c2c(-c3cccc(-c4sccc4C(C)=O)c3)cc(=O)oc2c1 do in these assays?
Cruzain noTriton: inconclusive; SARS PLpro yeast: 11.2%; RE007 growth inh: 6.1%; Cruzain inh Det: 1.4%; 2A StopGo: -0.1%

What do the screens show for `CC(=O)N1CCN(Cc2nc3ccc(Cl)cc3n2CCO)CC1`?
NS1 function inh: 5.8%; MARV entry inh: 14.9%[46.1 µM]; SARS PLpro yeast: 1.7%; RE007 growth inh: -0.5%; LASV entry inh: 17.4%[46.1 µM]; 2A StopGo: -2.2%

Results for CCOCC(=O)Nc1ccc(S(=O)(=O)NCCc2ccccc2)cc1 ?
NS1 function inh: -14.7%; MARV entry inh: -10.9%; Cruzain noTriton: 9.4%; RE007 growth inh: 2.6%; Cruzain inh Det: 3.9%; LASV entry inh: inconclusive; 2A StopGo: -10.7%

How did O=C(CCCc1nc2ccccc2s1)NCc1ccccc1F do in these assays?
NS1 function inh: 1.5%; MARV entry inh: 11.9%; Cruzain noTriton: -5.0%; SARS PLpro yeast: 2.2%; RE007 growth inh: -15.0%; Cruzain inh Det: -7.7%; LASV entry inh: -9.8%; 2A StopGo: 23.6%

What do the screens show for `O=C(c1ccc(F)cc1)N1CCN2C(=O)c3ccccc3C12c1ccccc1` (stereo not given)?
NS1 function inh: 4.2%; MARV entry inh: 9.3%; SARS PLpro yeast: -0.5%; RE007 growth inh: 39.6%; LASV entry inh: inconclusive; 2A StopGo: -17.4%

What do the screens show for `COc1cc(C)c(Br)cc1S(=O)(=O)N1CCOCC1`?
NS1 function inh: 1.2%; MARV entry inh: 6.2%; Cruzain noTriton: -4.2%; SARS PLpro yeast: 4.4%; RE007 growth inh: -7.9%; Cruzain inh Det: -0.7%; LASV entry inh: -0.2%; 2A StopGo: -1.9%

Results for COc1ccc(N2CCN(C(=O)C(=O)c3cn(CC(=O)N4CCOCC4)c4ccccc34)CC2)cc1 ?
NS1 function inh: -16.5%; SARS PLpro yeast: 1.0%; RE007 growth inh: 9.2%; 2A StopGo: 7.9%

What do the screens show for `O=C(Nc1ccc(Cl)c(-c2nc3ccccc3o2)c1)c1cccc2c(Cl)cccc12`?
MARV entry inh: 2.7%[46.1 µM]; Cruzain noTriton: 0.8%; Cruzain inh Det: -1.6%; LASV entry inh: -28.3%[46.1 µM]; 2A StopGo: -16.7%

How did CC(=O)N1c2ccc(S(=O)(=O)N(C)C3CCCCC3)cc2CC1C (stereo not given) do in these assays?
NS1 function inh: -10.5%; SARS PLpro yeast: -2.6%; RE007 growth inh: -4.1%; 2A StopGo: 6.8%

Results for Nn1c(SCC(=O)Nc2ccccc2)nnc1C1CCCCC1 ?
MARV entry inh: 19.1%; SARS PLpro yeast: 1.1%; RE007 growth inh: 2.7%; LASV entry inh: 28.5%[46.1 µM]; 2A StopGo: -8.8%

What do the screens show for `Cc1noc(C)c1CSc1nc2sc3c(c2c(=O)n1C)CCCC3`?
NS1 function inh: 7.1%; MARV entry inh: inconclusive; Cruzain noTriton: 25.4%; SARS PLpro yeast: 1.9%; RE007 growth inh: 10.7%; Cruzain inh Det: 4.1%; LASV entry inh: 5.2%; 2A StopGo: -11.0%

How did COCCCNc1ncnc2c1cnn2-c1ccc(C)cc1C do in these assays?
NS1 function inh: 4.6%; MARV entry inh: -0.5%; Cruzain noTriton: 1.3%; SARS PLpro yeast: 4.6%; RE007 growth inh: -4.2%; Cruzain inh Det: 9.8%; LASV entry inh: 4.4%

Results for CCNc1nc(NC(C)C)nc(NS(=O)(=O)c2ccc(N)cc2)n1 ?
NS1 function inh: -3.2%; MARV entry inh: 2.0%; Cruzain noTriton: -2.8%; SARS PLpro yeast: -8.3%; RE007 growth inh: -5.3%; Cruzain inh Det: 1.7%; LASV entry inh: -4.7%; 2A StopGo: 41.8%[activator]

Results for CCSc1nnc(NC(=O)c2cccs2)s1 ?
NS1 function inh: -190.0%; MARV entry inh: 20.6%; Cruzain noTriton: inconclusive; SARS PLpro yeast: -2.0%; RE007 growth inh: -17.7%; Cruzain inh Det: 0.0%; LASV entry inh: inconclusive; 2A StopGo: 67.6%[activator]

What do the screens show for `O=C(c1coc2ccc(O)c(CN3CCOCC3)c12)C1CC1`?
NS1 function inh: -3.7%; MARV entry inh: 7.6%; Cruzain noTriton: -0.6%; SARS PLpro yeast: 0.9%; RE007 growth inh: -10.1%; Cruzain inh Det: 1.3%; LASV entry inh: 1.1%; 2A StopGo: 2.5%

What do the screens show for `O=C(COC(=O)C1CC(=O)N(C2CCCCC2)C1)c1ccc(F)cc1` (stereo not given)?
NS1 function inh: -13.5%; MARV entry inh: -0.3%; Cruzain noTriton: 4.2%; SARS PLpro yeast: 2.6%; RE007 growth inh: -2.3%; Cruzain inh Det: 0.3%; LASV entry inh: 2.8%; 2A StopGo: 0.2%

How did CCN(CC)S(=O)(=O)c1ccc(N2CCOCC2)c(NC(=O)c2ccco2)c1 do in these assays?
MARV entry inh: 1.6%[46.1 µM]; SARS PLpro yeast: -0.8%; RE007 growth inh: -4.1%; LASV entry inh: -18.9%[46.1 µM]; 2A StopGo: -2.1%

Results for N#Cc1c2c(c(=S)n(-c3ccccc3)c1N)CCCC2 ?
NS1 function inh: -8.3%; MARV entry inh: 3.2%; Cruzain noTriton: -1.1%; SARS PLpro yeast: -6.0%; RE007 growth inh: 19.3%; Cruzain inh Det: -4.0%; LASV entry inh: 11.9%; 2A StopGo: -22.1%

How did Cc1cc(OCC(O)CN2CCCC2)cc(C)c1Cl (stereo not given) do in these assays?
NS1 function inh: 10.5%; SARS PLpro yeast: 0.7%; RE007 growth inh: 12.8%; 2A StopGo: -0.5%

What do the screens show for `CC(C)[C@H](NC(=O)NCCC1=CCCCC1)C(=O)O`?
NS1 function inh: -0.2%; SARS PLpro yeast: -0.7%; RE007 growth inh: 2.8%; 2A StopGo: -2.3%

Results for O=C(NNC(=O)OCc1ccccc1)OCc1ccccc1 ?
MARV entry inh: inconclusive; RE007 growth inh: -2.5%; LASV entry inh: inconclusive; 2A StopGo: 17.6%

Results for CNC(=O)c1cc2cc(Cl)cc(OC)c2oc1=O ?
NS1 function inh: -23.8%; MARV entry inh: 17.0%; RE007 growth inh: -1.2%; LASV entry inh: inconclusive; 2A StopGo: 20.2%

What do the screens show for `COC(CNC(=O)c1cccnc1)OC`?
NS1 function inh: 2.7%; SARS PLpro yeast: -0.6%; RE007 growth inh: 0.1%; 2A StopGo: -6.4%

How did CCOC(=O)Cc1csc(NC(=O)c2ccc(OC)c(OC)c2)n1 do in these assays?
NS1 function inh: -6.6%; MARV entry inh: -13.4%; Cruzain noTriton: 4.1%; SARS PLpro yeast: -10.8%; RE007 growth inh: -9.0%; Cruzain inh Det: -3.0%; LASV entry inh: -9.0%; 2A StopGo: -23.2%

What do the screens show for `O=c1c(/C=N/O)c(Nc2ccccc2)nc2ccccn12`?
NS1 function inh: -9.6%; MARV entry inh: inconclusive; Cruzain noTriton: -0.6%; SARS PLpro yeast: -2.4%; RE007 growth inh: 7.8%; Cruzain inh Det: -5.5%; LASV entry inh: -29.7%; 2A StopGo: inconclusive

Results for Cc1ccc(S(=O)(=O)N(CC(=O)NCCC2=CCCCC2)Cc2ccccc2F)cc1 ?
NS1 function inh: -38.0%; MARV entry inh: inconclusive; Cruzain noTriton: -6.2%; SARS PLpro yeast: -17.9%; RE007 growth inh: 1.3%; Cruzain inh Det: -1.7%; LASV entry inh: inconclusive; 2A StopGo: -12.1%

Results for C[C@@H](C(=O)NCc1ccc(S(C)(=O)=O)cc1)[C@H]1C[C@]1(C)[C@H](NC(=O)OCc1ccccc1)c1ccccc1 ?
NS1 function inh: -59.1%; MARV entry inh: -39.9%; Cruzain noTriton: inconclusive; SARS PLpro yeast: -2.1%; RE007 growth inh: -17.2%; Cruzain inh Det: -5.0%&0.5%; LASV entry inh: inconclusive; 2A StopGo: -20.9%
